KCNQ2 inh = KCNQ2 channel blockers in CHO-K1 cells – cell-based, FluxOR thallium flux, B-score, primary screen (AID 2156). 20 min; active compounds read low; only compounds with negative scores are shown here; some inactives read as strong as hits. B-score at 10 µM. 1.1% of 310,000 active;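 active means fluorescence ratio B-score at most minus 3 library SDs, with starting brightness B-score within 2 library SDs, cut at about -5.5 in these data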
Target sequence (O88943 whole entry, looked up): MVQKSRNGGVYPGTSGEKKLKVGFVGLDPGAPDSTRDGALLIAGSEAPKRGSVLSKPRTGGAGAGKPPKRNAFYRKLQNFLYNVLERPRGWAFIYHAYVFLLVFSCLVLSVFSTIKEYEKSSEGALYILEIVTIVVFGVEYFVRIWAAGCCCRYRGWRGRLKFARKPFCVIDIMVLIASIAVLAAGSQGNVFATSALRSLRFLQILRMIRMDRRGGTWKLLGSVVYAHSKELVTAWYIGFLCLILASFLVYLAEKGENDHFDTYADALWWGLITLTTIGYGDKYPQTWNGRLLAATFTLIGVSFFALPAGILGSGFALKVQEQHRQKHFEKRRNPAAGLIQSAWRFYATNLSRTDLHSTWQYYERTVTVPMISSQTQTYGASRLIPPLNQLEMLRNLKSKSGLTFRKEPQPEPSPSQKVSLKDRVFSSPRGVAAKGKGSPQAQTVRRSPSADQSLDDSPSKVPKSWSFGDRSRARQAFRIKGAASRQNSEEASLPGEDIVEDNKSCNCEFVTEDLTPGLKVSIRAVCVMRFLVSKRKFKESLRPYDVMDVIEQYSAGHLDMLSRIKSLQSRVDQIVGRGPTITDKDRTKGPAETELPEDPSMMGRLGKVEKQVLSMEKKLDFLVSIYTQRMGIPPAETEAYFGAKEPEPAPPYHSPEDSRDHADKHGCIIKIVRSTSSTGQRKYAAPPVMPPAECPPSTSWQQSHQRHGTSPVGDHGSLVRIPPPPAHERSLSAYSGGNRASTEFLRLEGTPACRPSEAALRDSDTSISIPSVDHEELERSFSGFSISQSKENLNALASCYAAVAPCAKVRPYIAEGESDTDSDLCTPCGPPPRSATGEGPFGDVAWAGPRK
KCNQ2 inh baseline = further read-out of KCNQ2 inh, marked with its call; B-score; measured here: initial fluorescence intensity artifact check;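 brightness before thallium and not channel activity; 0 = typical well and far values either way flag optical interference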
* = called active by the depositor.

O=C(COn1nnc2ccc(C(F)(F)F)cc21)Nc1nnc(-c2ccccc2)o1 was read as KCNQ2 inh inactive and KCNQ2 inh baseline 2.52.
`O=C(Cc1ccccc1[N+](=O)[O-])NC1CCN(Cc2ccccc2)CC1` gave KCNQ2 inh inactive and KCNQ2 inh baseline 2.2.
For O=C(NNC(=O)c1n[nH]c(=O)c2ccccc12)c1ccc(Br)cc1 the results were KCNQ2 inh inactive and KCNQ2 inh baseline 2.6.
`COc1ccc(OC)c(C2C(C(=O)c3ccco3)=C(O)C(=O)N2CCN2CCOCC2)c1` (configuration not stated) gave KCNQ2 inh inactive and KCNQ2 inh baseline 0.32.
Screening Cc1occc1C(=O)Nc1cc(C(F)(F)F)ccc1Cl returned KCNQ2 inh inactive and KCNQ2 inh baseline 1.75.
O=C(NCc1ccccc1F)c1ccc(S(=O)(=O)Nc2cccc(C(F)(F)F)c2)cc1 was read as KCNQ2 inh inactive and KCNQ2 inh baseline 0.06.
CCn1c2ccc(F)cc2c2nnc(SCCN3CCOCC3)nc21 was read as KCNQ2 inh inactive and KCNQ2 inh baseline 0.96.
CCCn1c(C)cc(/C=C(\C#N)C(=O)OCC(=O)Nc2cccc(OC)c2)c1C was read as KCNQ2 inh inactive and KCNQ2 inh baseline -1.11.
Screening CCn1c(=O)c(C(=O)CN(C)Cc2cccc(OC)c2OC)c(N)n(Cc2ccccc2)c1=O returned KCNQ2 inh inactive and KCNQ2 inh baseline -1.02.
`CCN1CCCc2cc(CN(CCN3CCOCC3)C(=O)Nc3ccc(C)c(C)c3)ccc21` gave KCNQ2 inh inactive and KCNQ2 inh baseline -0.31.
COc1cc2c(cc1OC)C(c1cccc([N+](=O)[O-])c1)NC(=O)C2 (configuration not stated) was read as KCNQ2 inh inactive and KCNQ2 inh baseline 0.98.
Screening COc1ccc(O)c(/C=N/NC(=O)c2ccc(N3CCCC3=O)cc2)c1 returned KCNQ2 inh inactive and KCNQ2 inh baseline -1.29.
`COc1ccccc1OCC(=O)Nc1cc(S(=O)(=O)N2CCCCC2)ccc1N1CCCCC1` gave KCNQ2 inh inactive and KCNQ2 inh baseline -0.88.
`O=C1CN2NC(=S)N(c3ccccc3)C2=CN1c1ccc(Cl)cc1` gave KCNQ2 inh inactive and KCNQ2 inh baseline 0.42.
CCOC(=O)C1=C(c2ccccc2)Nc2ncnn2C1c1cc(OC)cc(OC)c1OC (configuration not stated) was read as KCNQ2 inh inactive and KCNQ2 inh baseline -0.42.
CCN1CCCC1CNS(=O)(=O)c1cc(Br)cc2c1N(C(=O)C1CC1)CC2 (configuration not stated) was read as KCNQ2 inh inactive and KCNQ2 inh baseline 0.79.
For S=C(c1ccc(OCc2ccccc2)cc1)N1CCCC1 the results were KCNQ2 inh inactive and KCNQ2 inh baseline -0.47.
Cc1[nH]c2ccc(C(=O)OC(C)C(=O)NC3(C#N)CCCCC3)cc2c1C (configuration not stated) was read as KCNQ2 inh inactive and KCNQ2 inh baseline -0.4.
C=CCc1ccc(OCCCOc2ccc(C)c(C)c2)c(OC)c1 was read as KCNQ2 inh inactive and KCNQ2 inh baseline -1.01.
Screening COC(=O)c1cn(-c2ccccc2)nc1-c1ccc(OC)cc1 returned KCNQ2 inh inactive and KCNQ2 inh baseline 0.28.
`Cc1cccc(-n2c(C)cc(C=C3C(=O)c4ccccc4C3=O)c2C)c1` gave KCNQ2 inh inactive and KCNQ2 inh baseline -1.06.
O=C(Cc1c(Cl)cccc1Cl)Nc1cccc(S(=O)(=O)N2CCOCC2)c1 was read as KCNQ2 inh inactive and KCNQ2 inh baseline 1.7.
Screening COC(=O)c1cc2ccsc2n1Cc1nc(-c2cccc(Cl)c2)oc1C returned KCNQ2 inh inactive and KCNQ2 inh baseline 3.59.
`S=C(c1ccccc1)N1CCCc2ccccc21` gave KCNQ2 inh inactive and KCNQ2 inh baseline 0.08.
For COc1cccc(CNC(=O)CNC(=S)N(Cc2ccccc2)Cc2ccccc2F)c1 the results were KCNQ2 inh inactive and KCNQ2 inh baseline 3.11.
For Cc1ccc(N(CC(=O)NC2CCCCC2)C(=O)CNC(=O)c2cccs2)cc1 the results were KCNQ2 inh inactive and KCNQ2 inh baseline 0.06.
COc1cccc(C(=O)NNS(=O)(=O)c2ccc(C)cc2)c1 was read as KCNQ2 inh inactive and KCNQ2 inh baseline 0.42.
Screening CCOC(=O)C1=NN(N=O)C2(CC(=O)N(c3cc(C)cc(C)c3)C2=O)C1 (configuration not stated) returned KCNQ2 inh inactive and KCNQ2 inh baseline -0.77.
`CC(C)Oc1ccc(CNC(=O)c2ccc3c(c2)N(C)CCS3)cc1` gave KCNQ2 inh inactive and KCNQ2 inh baseline -1.25.
Screening C=CCNc1sc(C(=O)c2cccs2)c(N)c1C#N returned KCNQ2 inh inactive and KCNQ2 inh baseline -0.03.
For CNc1nc(C)nc(-n2nc(C)cc2C)n1 the results were KCNQ2 inh inactive and KCNQ2 inh baseline -0.57.
CC(C)C[C@H]1COCCS(=O)(=O)N1Cc1ccc(Cl)c(Cl)c1 was read as KCNQ2 inh inactive and KCNQ2 inh baseline -2.99.
c1csc(-c2nnsc2-c2nc3ccccc3[nH]2)c1 was read as KCNQ2 inh inactive and KCNQ2 inh baseline 1.12.
Cc1ccc(S(=O)(=O)N(Cc2ccc(Cl)cc2)c2ccccc2C(=O)O)cc1 was read as KCNQ2 inh inactive and KCNQ2 inh baseline -0.85.
CCC(C)(C)NC(=O)c1ccc2c(c1)N(CC(=O)NC1CCCC1)C(=O)C(C)(C)O2 was read as KCNQ2 inh inactive and KCNQ2 inh baseline 0.81.
For CCC(C)n1c(SCC(=O)NC2CCCC2)nc2ccccc2c1=O (configuration not stated) the results were KCNQ2 inh inactive and KCNQ2 inh baseline -1.31.
Screening CC(Oc1ccc2c3c(c(=O)oc2c1)CCC3)C(=O)NCC1CCC(C(=O)O)CC1 (configuration not stated) returned KCNQ2 inh inactive and KCNQ2 inh baseline 2.91.
Screening CCCCN(CC)S(=O)(=O)c1ccccc1 returned KCNQ2 inh inactive and KCNQ2 inh baseline -1.04.
For Clc1cccc(CN2CCN(c3ncccn3)CC2)c1Cl the results were KCNQ2 inh inactive and KCNQ2 inh baseline -0.52.
O=Cc1ccc(OCC(=O)Nc2ccccc2C(F)(F)F)cc1 was read as KCNQ2 inh inactive and KCNQ2 inh baseline 1.21.
For COc1ccc(-c2cc(C(=O)NCCc3ccccc3)no2)cc1OC the results were KCNQ2 inh inactive and KCNQ2 inh baseline -1.14.
`Cc1nn(-c2ccccc2[N+](=O)[O-])c(=O)c2ccccc12` gave KCNQ2 inh inactive and KCNQ2 inh baseline 0.72.
`CCCNC(=O)CS(=O)(=O)c1ccccc1` gave KCNQ2 inh inactive and KCNQ2 inh baseline 0.17.
COc1ccc(Cl)cc1NC(=O)CNc1ccc(F)cc1C was read as KCNQ2 inh inactive and KCNQ2 inh baseline 0.29.
For CC1CCCC(C)N1C(=O)CSc1ccc(-c2ccc3c(c2)OCCO3)nn1 (configuration not stated) the results were KCNQ2 inh inactive and KCNQ2 inh baseline 0.9.
`COc1ccc(NC(=O)C(=O)NCCN2CCN(C(=O)c3cccs3)CC2)cc1` gave KCNQ2 inh inactive and KCNQ2 inh baseline -0.79.
CCCc1nc2ccc(NC(=O)c3ccco3)cc2c(=O)n1Cc1ccc(Cl)cc1 was read as KCNQ2 inh inactive and KCNQ2 inh baseline 1.75.
Screening COc1ccc(NC2CCCN(C(=O)c3cc(CC(C)C)nc(N)n3)C2)cc1 (configuration not stated) returned KCNQ2 inh inactive and KCNQ2 inh baseline -1.47.
For O=c1[nH]c2ccccc2c2oc(CCl)nc12 the results were KCNQ2 inh inactive and KCNQ2 inh baseline -1.51.
For COc1ccc(CNC(=O)C2CCN(C(=O)[C@@H]3Cc4ccccc4CN3)CC2)cc1 the results were KCNQ2 inh inactive and KCNQ2 inh baseline -0.03.
CCNc1nc(C)c2cc(Br)c(=O)n(CC)c2n1 was read as KCNQ2 inh inactive and KCNQ2 inh baseline -0.05.
Cc1ccccc1N1CCN(C2CCCN(C(=O)c3ccc(Cl)s3)C2)CC1 (configuration not stated) was read as KCNQ2 inh inactive and KCNQ2 inh baseline 1.38.
For N#Cc1nc(COc2ccc(Br)cc2)oc1N1CCCC1 the results were KCNQ2 inh inactive and KCNQ2 inh baseline 0.55.
For CCOC(=O)C1CCN(C(=O)Cn2cc(C#N)c3ccccc32)CC1 the results were KCNQ2 inh inactive and KCNQ2 inh baseline 0.34.
`Cc1ccc(Cl)cc1NC(=S)N(CCCN1CCN(C)CC1)Cc1ccco1` gave KCNQ2 inh inactive and KCNQ2 inh baseline 0.14.
`Cc1ccc(N(CC(=O)NCCc2ccccc2)S(=O)(=O)c2c(C)noc2C)cc1` gave KCNQ2 inh inactive and KCNQ2 inh baseline -2.57.
For O=C1c2ccccc2C2=Nc3ccccc3SC(c3cccc(F)c3)C12 (configuration not stated) the results were KCNQ2 inh inactive and KCNQ2 inh baseline -0.02.
CSc1nc(NCC(C)C)c2c3c(sc2n1)CN(C)CC3 was read as KCNQ2 inh inactive and KCNQ2 inh baseline 10.6.
Screening COc1nc(-c2ccccc2)c2c(c1C#N)CC(C)(C)OC2 returned KCNQ2 inh inactive and KCNQ2 inh baseline -0.02.
O=C(CN1C(=O)COc2ccccc21)NCCCN1CCCCC1 was read as KCNQ2 inh inactive and KCNQ2 inh baseline 0.32.

6 consecutive entries out of the list so far, for reference:
`COc1ccc(NC(=O)C(=O)NCCN2CCN(C(=O)c3cccs3)CC2)cc1` gave KCNQ2 inh inactive and KCNQ2 inh baseline -0.79.
CCCc1nc2ccc(NC(=O)c3ccco3)cc2c(=O)n1Cc1ccc(Cl)cc1 was read as KCNQ2 inh inactive and KCNQ2 inh baseline 1.75.
Screening COc1ccc(NC2CCCN(C(=O)c3cc(CC(C)C)nc(N)n3)C2)cc1 (configuration not stated) returned KCNQ2 inh inactive and KCNQ2 inh baseline -1.47.
For O=c1[nH]c2ccccc2c2oc(CCl)nc12 the results were KCNQ2 inh inactive and KCNQ2 inh baseline -1.51.
For COc1ccc(CNC(=O)C2CCN(C(=O)[C@@H]3Cc4ccccc4CN3)CC2)cc1 the results were KCNQ2 inh inactive and KCNQ2 inh baseline -0.03.
CCNc1nc(C)c2cc(Br)c(=O)n(CC)c2n1 was read as KCNQ2 inh inactive and KCNQ2 inh baseline -0.05.

(cont.)
`CCc1ccc(C(=O)N2CCC(c3nc4ccccc4s3)CC2)cc1` gave KCNQ2 inh inactive and KCNQ2 inh baseline 0.2.
For CN(C)C(CNC(=O)c1ccc(NS(=O)(=O)c2ccc(F)cc2)cc1)c1ccco1 (configuration not stated) the results were KCNQ2 inh inactive and KCNQ2 inh baseline -1.14.
`Cc1ccc(SCCC(=O)N2CCCC2)cc1` gave KCNQ2 inh inactive and KCNQ2 inh baseline -0.49.
`Cc1ccc(-n2c(C)cc(C(=O)CSc3nnc4ccccn34)c2C)cc1` gave KCNQ2 inh inactive and KCNQ2 inh baseline 1.38.
CN(C(=O)COC(=O)c1ccccc1NCc1ccco1)c1c(N)n(Cc2ccccc2)c(=O)[nH]c1=O was read as KCNQ2 inh inactive and KCNQ2 inh baseline -0.08.
For CCN(CC)S(=O)(=O)c1ccc(NC(=O)c2cccnc2Cl)c(NC(=O)c2cccnc2Cl)c1 the results were KCNQ2 inh inactive and KCNQ2 inh baseline 1.3.
Screening COc1ccccc1CN1CCNC(=O)C1CC(=O)N(C)Cc1cnccn1 (configuration not stated) returned KCNQ2 inh inactive and KCNQ2 inh baseline -1.42.
Cc1nc(NC(=O)CN(C)S(=O)(=O)c2ccc(Cl)cc2)sc1C was read as KCNQ2 inh inactive and KCNQ2 inh baseline -0.62.
`Cc1c(NC(=O)c2cc(-c3ccc(Cl)cc3)on2)c(=O)n(-c2ccccc2)n1C` gave KCNQ2 inh inactive and KCNQ2 inh baseline 1.8.
CSc1cccc(NS(=O)(=O)c2ccc3c(c2)NC(=O)C(C)C(=O)N3)c1 (configuration not stated) was read as KCNQ2 inh inactive and KCNQ2 inh baseline -0.01.
`COc1ccc2nc(C)cc(Nc3ccc(C(=O)O)cc3)c2c1` gave KCNQ2 inh inactive and KCNQ2 inh baseline 0.04.
`Cn1c(CC(=O)Nc2ccccc2)nnc1SCC(=O)Nc1ccc(N2CCOCC2)cc1` gave KCNQ2 inh inactive and KCNQ2 inh baseline -1.44.
Screening O=c1c2c3c(sc2n(CCN2CCCCC2)c(=O)n1Cc1ccco1)CCCCC3 returned KCNQ2 inh inactive and KCNQ2 inh baseline -0.03.
For COC(=O)/C(C#N)=C/c1ccc(-c2ccc(S(N)(=O)=O)cc2)o1 the results were KCNQ2 inh inactive and KCNQ2 inh baseline 1.26.
Screening N#C/C(=C\Nc1ccc2c(c1)OCCO2)c1nc2ccccc2[nH]1 returned KCNQ2 inh inactive and KCNQ2 inh baseline -0.38.
`CN(CC(=O)Nc1ccccc1Cl)C(=O)COC(=O)c1cc([N+](=O)[O-])ccc1N1CCOCC1` gave KCNQ2 inh inactive and KCNQ2 inh baseline 0.05.
`Cc1cccc(NC(=S)N2CCN(c3ccccn3)CC2)c1` gave KCNQ2 inh inactive and KCNQ2 inh baseline -0.57.
For Cc1ccc(-c2nc3ccccc3c(C(=O)NCc3cccs3)c2C)cc1 the results were KCNQ2 inh -6.58* and KCNQ2 inh baseline 0.89*.
`CCCc1cc(C(=O)N/N=C/c2ccc(CC)s2)c2ccccc2n1` gave KCNQ2 inh inactive and KCNQ2 inh baseline 0.86.
Screening CCOC(=O)c1cnn(C)c1NC(=O)c1ccc([N+](=O)[O-])cc1 returned KCNQ2 inh inactive and KCNQ2 inh baseline -1.35.
`N#Cc1nc(-c2ccc(F)cc2)oc1NCc1ccco1` gave KCNQ2 inh inactive and KCNQ2 inh baseline 1.45.

2 compounds drawn at random from those above, as already listed:
For Cc1ccc(-c2nc3ccccc3c(C(=O)NCc3cccs3)c2C)cc1 the results were KCNQ2 inh -6.58* and KCNQ2 inh baseline 0.89*.
`CN(CC(=O)Nc1ccccc1Cl)C(=O)COC(=O)c1cc([N+](=O)[O-])ccc1N1CCOCC1` gave KCNQ2 inh inactive and KCNQ2 inh baseline 0.05.

Bioassay records: PubChem, Johns Hopkins Ion Channel Center

Not all compounds are listed, so the mix of outcomes need not match the whole.
